Sa growth 42C: S. aureus growth inhibition. S. aureus RN4220 growth, OD600, 20 h, 42 °C; hits give low values. relative growth, % (no concentration beside the values). 0.53% of 170,000 active;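 active = growth at 42 °C up to 50% and 20 or more points under that at 30 °C, or under 10% at both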;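 also: 300 nL library stock went into each well; scaled to the means of positive and negative controls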
HCMV UL50-53 inh: cytomegalovirus nuclear egress complex inhibition. AID 1918969. 0.15% of 190,000 active. HTRF UL50-UL53 interaction, normalized percent inhibition. inhibition, % (concentration not given with the values);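 active = both replicates at 50% or more, plus weaker picks with an unusually low signal ratio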;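 also: stock transfer was 100 nL into about 20 µL; 0% = negative control wells and 100% = wells with untagged competitor protein; inactives centre near -12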
GIV-Gai inh: GIV-Galpha-i interaction inhibition. P08753. Galpha-i3/FITC-GIV peptide fluorescence polarization, 90 min; hits give low values; scaled: aluminum fluoride 0%, vehicle 100%. percent of control (FP), % (no concentration beside the values). 0.42% of 210,000 active;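 active = replicate mean at 85% of control or lower, very high polarization wells dropped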;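 also: wells of about 15 µL received 100 nL stock; the first replicate is given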
Target sequence (P08753 whole entry, looked up): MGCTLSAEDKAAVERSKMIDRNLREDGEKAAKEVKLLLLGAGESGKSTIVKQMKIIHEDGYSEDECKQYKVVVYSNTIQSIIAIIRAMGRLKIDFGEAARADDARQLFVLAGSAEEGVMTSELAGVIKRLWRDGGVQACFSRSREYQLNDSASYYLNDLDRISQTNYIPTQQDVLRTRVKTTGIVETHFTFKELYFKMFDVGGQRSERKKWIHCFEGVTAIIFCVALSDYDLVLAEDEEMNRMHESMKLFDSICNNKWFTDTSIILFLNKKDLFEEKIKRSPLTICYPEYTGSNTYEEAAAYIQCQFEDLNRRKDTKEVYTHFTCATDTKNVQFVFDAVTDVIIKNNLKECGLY
Sa growth 42C second temp: further read-out of Sa growth 42C, marked with its call; relative growth, %; measured here: growth at 30 °C;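 optical density after 20 h as mean of two plates; 100% = untreated growth and lower means inhibition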
Starred values were filed as active, the others as inactive; / = not tested or not shown; & = joins results of further samples.

#1 O=C(CC(c1ccccc1)c1ccccc1)NCCn1ccc2ccccc21
#2 CN(Cc1cccs1)C(=O)Cn1cnc2ccccc2c1=O
#3 CN(CC(=O)Nc1ccc(F)cc1F)S(=O)(=O)c1cccc2nsnc12
#4 O=C(COc1ccc(S(=O)(=O)N2CCOCC2)cc1)NCCC1=CCCCC1
#5 COc1ccccc1N1CCN(S(=O)(=O)c2c(C)sc3ncn(CC(=O)Nc4ccc(C(C)C)cc4)c(=O)c23)CC1
#6 CCOC(=O)c1cc(-c2ccccc2)n(CCC(=O)Nc2ccccc2CC)c1C

assay / entry	1	2	3	4	5	6
Sa growth 42C	101	97	101	106	94	115
Sa growth 42C second temp	89	94	86	96	96	84
HCMV UL50-53 inh	/	13	-120	-6	-13	/
GIV-Gai inh	98	/	105	104	101	101

#7 COc1cccc(-c2nc(S(=O)(=O)c3ccc(C)cc3)c(N(C)C)o2)c1
#8 CNS(=O)(=O)c1cn(CC(=O)Nc2ccc(C)c(N(C)C)c2)cc1S(=O)(=O)NC
#9 COc1ccc(OC)c(CCNC(=O)c2cc3c(-c4ccccc4F)nn(C)c3s2)c1
#10 COc1ccccc1NC(=O)Cc1ccc(Br)cc1
#11 Cn1nccc1NS(=O)(=O)c1ccc(NS(=O)(=O)c2ccc(Cl)cc2)cc1
#12 CCc1c(C)nc2ncnn2c1NCc1ccccc1

assay / entry	7	8	9	10	11	12
Sa growth 42C	96	108	113	87	81	/
Sa growth 42C second temp	105	93	62	78	82	/
HCMV UL50-53 inh	/	/	-4	-13	-26	-23
GIV-Gai inh	104	100	106	/	99	101

#13 CCn1nnc2c(N3CCN(c4ccc(OC)cc4)CC3)ncnc21
#14 O=C(Cn1cnc2ccc(Br)cc2c1=O)OCc1ccccc1
#15 Cc1ccc(OCc2ccc(Cl)cc2)c(C(C)(C)C)c1
#16 Cc1cc(NC(=O)COc2cc(C)c(Cl)c(C)c2)no1
#17 O=C(NCCC1=CCCCC1)c1ccc2c(c1)sc1nc(-c3ccccc3)cn12
#18 CC1CCN(C(=O)CCNC(=O)c2ccccc2)CC1

assay / entry	13	14	15	16	17	18
Sa growth 42C	92	101	94	116	119	103
Sa growth 42C second temp	78	91	88	96	85	89
HCMV UL50-53 inh	-34	-9	-24	-1	/	-11
GIV-Gai inh	98	98	/	105	101	/

#19 NC(=O)Cn1c(=O)n(-c2ccccc2)c(=O)c2ccc(C(=O)NCc3ccco3)cc21
#20 CC1=CC2=NC(=O)/C(=C\c3cccn3CCCOc3cc(C)cc(C)c3)C(=N)N2O1
#21 COC(=O)c1cc2oc(C)cc2n1CC(=O)Nc1ccc(C(C)C)cc1
#22 O=C(CCNC(=O)c1ccc(Br)o1)NC1CCCC1
#23 CCCCN(CC)CCCNC(=O)c1cn(CC(C)C)c(=O)c2c1c1ccccc1n2C
#24 CC(=O)N1CCC2(CC1)C(C#N)=C(N)OC1=C2C(=O)CCC1

assay / entry	19	20	21	22	23	24
Sa growth 42C	88	84	124	101	101	110
Sa growth 42C second temp	106	86	95	87	84	90
HCMV UL50-53 inh	6	-30	-35	/	-16	-8
GIV-Gai inh	104	100	102	97	106	104

#25 Cc1cccc(N2CCN(C(=O)c3nn(C)c4c3CSc3ccccc3-4)CC2C)c1 (stereo unspecified)
#26 c1ccc(Nc2cccc3nccnc23)cc1
#27 CCCn1c2ccccc2c2cnn(CC(=O)Nc3cc(C)c(Cl)cc3OC)c(=O)c21
#28 O=C(c1ccc2c(c1)N(Cc1cccc(F)c1)C(=O)c1ccccc1S2)N1CCCC1
#29 O=C(O)CSc1c2c(nc3cc(C(=O)NCCN4CCOCC4)ccc13)CCC2
#30 Cc1ccc(C(CC(=O)N2CCCCC2)N2Cc3ccccc3C2=O)cc1 (stereo unspecified)

assay / entry	25	26	27	28	29	30
Sa growth 42C	106	82	80	100	112	93
Sa growth 42C second temp	101	87	99	61	95	76
HCMV UL50-53 inh	-24	-73	/	/	-39	-41
GIV-Gai inh	98	98	108	104	106	102

#31 Cc1ccc(NC(=O)c2cc(=O)[nH]c(=O)[nH]2)cc1
#32 Cc1cc(NC(=O)C(Cc2ccccc2)NS(=O)(=O)c2cccc3cccnc23)no1 (stereo unspecified)
#33 COc1ccc(N2CCN(CCCNC(=O)c3cccc(Nc4nc5ccccc5n5nnnc45)c3)CC2)cc1
#34 COc1ccc(-c2nc3sc(CCNC(=O)C(=O)Nc4ccc(C)c(C)c4)c(C)n3n2)cc1
#35 COc1ccc(CCNC(=O)CCn2c(=O)c3cccn3c3ccc(F)cc32)c(OC)c1OC
#36 Cc1ccc(-c2ccc(N3CCCC(C(=O)NCCC4=CCCCC4)C3)nn2)cc1 (stereo unspecified)

assay / entry	31	32	33	34	35	36
Sa growth 42C	113	95	89	86	100	/
Sa growth 42C second temp	96	86	82	99	48	/
HCMV UL50-53 inh	/	-36	-29	/	-14	5
GIV-Gai inh	103	108	102	102	98	103

#37 COc1cc2nc(CC(C)C)n(N)c(=O)c2cc1OC
#38 CC1CCN(C(=O)Cn2ncn3c(cc4sccc43)c2=O)CC1
#39 C1CCC(Nc2nnnn2C2CCCCC2)CC1
#40 COC(=O)Cn1nc2c3c(cccc31)C(=O)c1ccccc1-2
#41 COC(=O)C1=C(Nc2ccccc2NS(=O)(=O)c2ccc(Cl)cc2)CSC1
#42 Cc1nc(S(=O)(=O)N2CCC(C(=O)N3CCN(c4ccccc4)CC3)CC2)cn1C

assay / entry	37	38	39	40	41	42
Sa growth 42C	89	/	123	93	125	/
Sa growth 42C second temp	91	/	102	86	99	/
HCMV UL50-53 inh	18	-31	-4	-20	2	-12
GIV-Gai inh	97	96	105	94	110	96

#43 Cc1ccc(NS(=O)(=O)c2ccc3[nH]c4c(c3c2)CCCCCC4)cc1Cl
#44 CC(C)(CC(=O)O)CC(=O)Nc1cccc(C(=O)O)c1
#45 COc1ccccc1CNC(=O)c1ccc(CS(=O)c2ccccc2Cl)o1 (stereo unspecified)
#46 CN1C(=O)C(O)(CC(=O)/C=C/c2ccco2)c2ccccc21 (stereo unspecified)
#47 CCOc1ccc(-c2nnc(SCC(=O)Nc3cccc(OC)c3)nc2-c2ccc(OCC)cc2)cc1
#48 O=C(O)/C=C/c1ccc(Cn2ccnc2)cc1

assay / entry	43	44	45	46	47	48
Sa growth 42C	106	90	112	82	94	98&87
Sa growth 42C second temp	73	83	83	84	95	97&85
HCMV UL50-53 inh	/	-29	/	-35	/	-35&-13&-7&-7&-12
GIV-Gai inh	107	99	106	102	101	113

#49 O=C(Cn1c2ncccc2c(=O)n1-c1ccccc1)NCc1ccccc1Cl
#50 COC(=O)c1cc(OC(=O)c2nn(-c3ccccc3)nc2C)n(-c2ccccc2)n1
#51 O=C(c1cccc(Cl)c1)N1CCCc2ccccc21
#52 CCOC(=O)N1CCN(S(=O)(=O)c2ccc(C)cc2)C1C(C)C (stereo unspecified)
#53 COc1ccc(Cl)cc1Nc1nc2cc(C)ccc2cc1C#N
#54 CCCOc1ccc(-c2nc(OCC)c3ccccc3n2)cc1

assay / entry	49	50	51	52	53	54
Sa growth 42C	96	82	69	106	104	101
Sa growth 42C second temp	90	91	26	100	89	88
HCMV UL50-53 inh	-2	-17	-5	19	-10	/
GIV-Gai inh	110&104	105	103	99	/	104

#55 C/C(=N\N(C)c1ccccc1)C1=C(O)CC(C)(C)CC1=O
#56 COCCn1c(-c2ccccc2)cnc1N
#57 CCS(=O)(=O)Nc1ccc(Br)cn1
#58 Cc1cccc(C)c1NC(=O)Cn1c(=O)n(Cc2ccccc2)c(=O)c2c(C)c(C(=O)N(C)C)sc21
#59 N#Cc1c(Nc2ccc(Cl)cc2)s[nH]c1=O
#60 Cc1nnc(NC(=O)CN2C(=O)c3cccnc3Sc3ccccc32)s1

assay / entry	55	56	57	58	59	60
Sa growth 42C	100	69	92	95	67	102
Sa growth 42C second temp	86	8	94	87	33	88
HCMV UL50-53 inh	-2	-5	-21	/	-7	-14
GIV-Gai inh	/	102	/	102	125	105

#61 O=C(/C=C/N1CCOCC1)c1cccs1
#62 COc1ccc2c(Sc3ccc(C)cc3)c(C(=O)NCCc3ccccc3)[nH]c2c1
#63 CCOc1ccc(Nc2cc(C(=O)NCc3ccc(F)cc3)c3ccccc3n2)cc1
#64 O=C(OCC(=O)N1CCCCC1)c1ccc(S(=O)(=O)N2CCCCC2)cc1
#65 O=C(NCC1CCCO1)c1ccc(CSc2ncn[nH]2)cc1 (stereo unspecified)
#66 Cc1nc(Nc2ccc(NS(=O)(=O)c3cccc(Br)c3)cc2)cc(N2CCOCC2)n1

assay / entry	61	62	63	64	65	66
Sa growth 42C	80	127	104	94	66	/
Sa growth 42C second temp	91	90	82	95	88	/
HCMV UL50-53 inh	-19	-20	/	-13	-28	-28
GIV-Gai inh	/	103	101	/	/	98

#67 Cc1cccc(NCN2C(=O)S/C(=C/c3ccc(N(C)C)cc3)C2=O)c1
#68 CCc1cccc2nc(SC(CC)C(=O)NN)n(-c3ccc(OC)cc3)c(=O)c12 (stereo unspecified)
#69 Cc1cccc(C)c1NC(=O)c1nc(S(C)(=O)=O)ncc1N(Cc1ccc(C(C)(C)C)cc1)Cc1ccco1
#70 COCC(C)n1c(SCC(N)=O)nc2ccccc2c1=O (stereo unspecified)
#71 O=C(NCCSc1ccccc1)c1cncc(Br)c1
#72 Cc1ccc2nc(-c3ccc(N=Cc4c[nH]c5ccccc45)cc3)sc2c1

assay / entry	67	68	69	70	71	72
Sa growth 42C	118	90	94	103	78	88
Sa growth 42C second temp	110	85	91	84	83	84
HCMV UL50-53 inh	-13	-20	-10	-30	-10	-25
GIV-Gai inh	108	/	99	/	103	/

Complete entries, quoted from the list. Order of values: Sa growth 42C, Sa growth 42C second temp, HCMV UL50-53 inh, GIV-Gai inh
Entry for O=C(Cn1c2ncccc2c(=O)n1-c1ccccc1)NCc1ccccc1Cl = 96, 90, -2, 110&104
Entry for CCc1c(C)nc2ncnn2c1NCc1ccccc1 = /, /, -23, 101
Entry for O=C(/C=C/N1CCOCC1)c1cccs1 = 80, 91, -19, /

Other entries:
#73 Cc1nc(Cl)c(C#N)cc1-c1ccccc1
#74 COc1ccc(C2=NN(C(=O)c3cc(OC)c(OC)c(OC)c3)C(c3ccc(Cl)cc3)C2)cc1OC (stereo unspecified)
#75 CCC1=C(C(=O)OC)C(/C=C/c2ccccc2)n2ncnc2N1 (stereo unspecified)
#76 CN(C(=O)CSc1ccc(C(F)(F)F)cn1)c1c2c(nn1C)CCCC2
#77 O=c1ccnc2n1COCS2
#78 Cc1ccc(CNc2cccnc2)cc1

assay / entry	73	74	75	76	77	78
Sa growth 42C	/	/	110	86	98	100
Sa growth 42C second temp	/	/	79	94	89	110
HCMV UL50-53 inh	-16	-18	-26	-11	-20	-1
GIV-Gai inh	105	105	102	99	102	105

#79 COc1cccc(NC(=S)Nc2ccc(S(N)(=O)=O)cc2)c1
#80 COc1cccc(NC(=O)CSc2nc(=O)n(Cc3cccnc3)c3c2CCC3)c1
#81 O=C(c1ccc(Cl)cc1)N1CCCC(c2nc(-c3ccc(Cl)cc3)no2)C1 (stereo unspecified)
#82 CC(C)NC(=O)Cn1c(=O)n(-c2ccc(CC(=O)NC3CCCCC3)cc2)c(=O)c2ccccc21
#83 COc1ccc(-c2cc(C(F)(F)F)nc(SCCC(=O)Nc3ccc(F)cc3F)n2)cc1
#84 O=c1[nH]c2sc3c(c2c2ncnn12)CCCC3

assay / entry	79	80	81	82	83	84
Sa growth 42C	97	137	126	/	87	107
Sa growth 42C second temp	98	86	88	/	91	96
HCMV UL50-53 inh	7	/	-2	6	-16	13
GIV-Gai inh	108	103	104	99	97	101

#85 COc1ccc(-c2noc(-c3ccc(Cl)c(Cl)c3)n2)cc1
#86 CCOC(=O)c1cnc2ccccc2c1NCC(C)O (stereo unspecified)
#87 COc1cccc(-c2nc(=S)c3c(o2)CCCC3)c1
#88 CSc1cccc(NC(=O)CSc2ccccn2)c1
#89 O=C(CC1C(=O)NCCN1C(=O)NC1CCCCC1)Nc1ccc(F)cc1 (stereo unspecified)
#90 Cc1cc(C)cc(-n2c(SCC(=O)NCC3CCCO3)nc3c(c2=O)SC(C)C3)c1 (stereo unspecified)

assay / entry	85	86	87	88	89	90
Sa growth 42C	84	94	110	98	/	100
Sa growth 42C second temp	88	94	77	79	/	94
HCMV UL50-53 inh	/	2	-27	-5	-20	-12
GIV-Gai inh	99	109	105	105	102	104

#91 COc1ccc2nc(NC(=O)c3cc(=O)c4cc(C)c(C)cc4o3)sc2c1
#92 O=C(COC(=O)/C=C/c1ccccc1)Nc1c(F)cccc1F
#93 Cc1ccc(C)c(N2CCN(CCCNC(=O)c3c(-c4ccccn4)noc3C)CC2)c1
#94 N=c1c[n+](-c2ccc(Cl)cc2)[n-]o1
#95 COc1cccc(-c2nc(CS(=O)(=O)CC(=O)Nc3ccccc3C)c(C)o2)c1
#96 Cc1ccc(C)c(NC(=O)Cn2c(=O)n(CC(=O)NCCc3ccccc3)c(=O)c3ccccc32)c1
#97 CCC(Sc1nc2ccsc2c(=O)n1Cc1ccc(C(=O)O)cc1)C(=O)Nc1cccc(OC)c1 (stereo unspecified)

assay / entry	91	92	93	94	95	96	97
Sa growth 42C	88	93	/	96	123	105	74
Sa growth 42C second temp	85	99	/	77	92	93	48
HCMV UL50-53 inh	-24	-5	-9	/	/	-1	8
GIV-Gai inh	106	/	95	102	98	101	103

Screens: PubChem, ICCB-Longwood Screening Facility, Harvard Medical School

The order is random; any-hit rate near 0.79%.
